# D2 potentiator: positive allosteric modulators of human D2 dopamine receptor | potentiation, % (no concentration beside the values) | 360,000 tested, 0.23% active | P14416 | AID 624464 | DiscoveRx D2 beta-arrestin cells, luminescence, 90 min; 100% = 57 uM dopamine signal; active = potentiation of 50% or more; inconclusive = 30% to 50%; inactive = 30% or less;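 note: compound concentration not given in the record; tested on top of an EC20 dose of dopamine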
#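 PathHunter D2 cells, attached overnight at 37 deg C, received compound in DMSO plus dopamine at EC20 (50 nM final) for 90 min at 37 deg C. Beta-arrestin recruitment was read as luminescence after 1 h with detection reagent at ambient temperature.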
# TRPML1 agonist: human mucolipin-1 channel agonism. TRPML1-expressing cells, Ca2+ dye fluorescence, FDSS; host cell line not named in the record; reference of the full effect not given here. Q9GZU1. activation, % (concentration not given with the values). 410,000 tested, 0.12% active; in the data active = activation above about 50%; inconclusive = about 30% to 50%; inactive = below about 30%; note: 0% is about no effect; the text of the record puts the active cut at 80%
#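 Agonist activity was taken from a 110 s kinetic Ca2+ dye read on the FDSS after pinning compounds onto TRPML1-DL cells. The cells were seeded at 1,500/well with Tet inducer, incubated about 16 h, then dye-loaded at room temperature.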
# Six1-Eya2 inh: inhibitors of human Six1/Eya2 interaction | Q15475+O00167 | AlphaScreen GST-Six1/His-Eya2 binding, biochemical; stronger effect = lower value; control for the full effect not named in the record | activity change, % (no concentration beside the values) | 360,000 tested, 0.56% active | AID 651725; in the data active = activity change below about -65%; inconclusive = about -30% to -65%; inactive = above about -30%; note: % is set by controls: 0 for no effect and ±100 for the full control effect; compound concentration not given in the record
# Target sequence (O00167 whole entry, looked up): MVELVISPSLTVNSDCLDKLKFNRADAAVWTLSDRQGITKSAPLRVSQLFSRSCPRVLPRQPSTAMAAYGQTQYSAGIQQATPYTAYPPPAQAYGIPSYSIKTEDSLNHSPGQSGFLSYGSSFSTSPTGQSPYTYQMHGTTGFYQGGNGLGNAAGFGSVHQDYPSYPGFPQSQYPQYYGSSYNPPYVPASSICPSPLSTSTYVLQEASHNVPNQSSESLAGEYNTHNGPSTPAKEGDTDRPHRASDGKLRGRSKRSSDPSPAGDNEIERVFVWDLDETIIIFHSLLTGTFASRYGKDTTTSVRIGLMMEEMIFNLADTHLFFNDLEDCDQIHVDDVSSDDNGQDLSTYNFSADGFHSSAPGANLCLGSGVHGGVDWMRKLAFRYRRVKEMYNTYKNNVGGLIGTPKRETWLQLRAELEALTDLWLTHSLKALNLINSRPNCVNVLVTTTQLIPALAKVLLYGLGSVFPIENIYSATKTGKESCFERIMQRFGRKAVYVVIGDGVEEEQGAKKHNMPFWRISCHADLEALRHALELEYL
# Target sequence (Q15475 whole entry, looked up): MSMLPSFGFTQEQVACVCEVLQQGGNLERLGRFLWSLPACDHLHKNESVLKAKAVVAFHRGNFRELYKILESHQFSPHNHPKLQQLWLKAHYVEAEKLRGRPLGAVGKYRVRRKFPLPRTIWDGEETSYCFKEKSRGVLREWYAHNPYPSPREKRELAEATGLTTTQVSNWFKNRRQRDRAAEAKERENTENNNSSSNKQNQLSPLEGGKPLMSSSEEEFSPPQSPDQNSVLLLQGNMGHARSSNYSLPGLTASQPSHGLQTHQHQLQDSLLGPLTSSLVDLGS
#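 Homogeneous AlphaScreen proximity assay pairing GST-Six1 with His-tagged Eya2 (added as 5X mix: 250 nM and 500 nM) in 50 mM Tris pH 8.0, 300 mM NaCl, 1 mM TCEP. Glutathione donor and nickel acceptor beads; 1 h, 37 °C, dark.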
# D2 ag: agonists of human D2 dopamine receptor (beta-arrestin); DiscoveRx PathHunter D2 beta-arrestin, luminescence, 90 min; 100% = 57 uM dopamine signal; activation, % (no concentration beside the values); 360,000 tested, 0.084% active; in the data active = activation above about 40%; inconclusive = about 15% to 40%; inactive = below about 15%; note: compound concentration not given in the record; the text of the record calls up to 30% inactive
#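 DiscoveRx PathHunter D2 beta-arrestin cells (2,100/well) attached overnight, then compound-stimulated 90 min at 37 C in HBSS/10 mM HEPES/0.1% Tween-20 buffer; beta-galactosidase complementation read by luminescence after 1 h at ambient temperature. Dopamine 57 uM final (EC100) as control.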
# TRPML1 blocker: blocks the human TRPML1 channel | TRPML1-inducible cells, Ca2+ dye fluorescence, FDSS; stronger effect = lower value; inhibition of EC80 agonist-evoked calcium signal | activity change, negative = inhibition, % (no concentration beside the values) | 390,000 tested, 0.02% active | Q9GZU1; in the data active means activity change below about -50%; inconclusive means about -30% to -50%; inactive means above about -30%;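 note: stimulus is agonist 54-4 at its EC80 concentration; % is set by controls: 0 for no effect and ±100 for the full control effect; compound concentration not given in the record; the text of the record puts the active cut at -80%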
#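 TRPML1-DL cells, Tet-induced overnight (~16 h, 37 °C) at 1,500 cells/well, were loaded with Ca8 no-wash dye plus quencher for 45-90 min at room temperature. Compounds were pinned during FDSS kinetic reading; agonist 54-4 at EC80 (4 uM final) then added.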
# PINK1 expr mod: modulators of PINK1 expression; PINK1 immunofluorescence, high-content cytometry, 24 h; Potency, µM (highest dose often 76.6 µM), for the others: at the top dose activation (PINK1 increase), most hits filed as activators; 410,000 tested, 0.2% active; AID 624263; active = well fitted activation curve with a large enough effect; inconclusive = small, poorly fitted or top-dose-only effect; inactive = flat fitted curve, though single readings scatter; cell line not stated here;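 note: potency is the fitted concentration of half-maximal effect; % of control where 0% means no effect; nearly all actives have a fitted effect of over 65% in size; a mitochondrial uncoupler was the plate control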
#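 Cells are seeded, rested 12 hours, then given compound at five concentrations or DMSO for 24 hours. After fixation, blocking and antibody staining, PINK1 amount and mitochondrial localization are scored; CCCP serves as control.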
# An asterisk follows results filed as active; ? = inconclusive; nt = not tested or not shown; & = joins results of further samples; [ ] = another dose, or the depositor's remark.
# Each structure is followed by: D2 potentiator	TRPML1 agonist	Six1-Eya2 inh	D2 ag	TRPML1 blocker	PINK1 expr mod
Cc1ccc(CN2CCN(Cc3cccc(-n4cccn4)c3)CC2CCO)cc1 (configuration not stated)
 : -4	0.2	-11	-3.7	3	3.4%
C[C@@H]1ON(C)[C@H]2C[C@H]3c4cc(-c5cccc(F)c5)ccc4CCN3C(=O)[C@@H]12
 : 4	2.7	-5	1.9	-6	0.6%
Cc1ccc(C)c(CN2CCC(CNC(=O)C(CC(C)C)N3Cc4ccccc4C3=O)CC2)c1 (configuration not stated)
 : nt	-0.6	nt	nt	-3	0.6%
CCSC1=NCCN1S(=O)(=O)c1ccc2ccccc2c1
 : -5	0.5	-3	2.5	-4	-0.5%
COc1cccc2cc(C(=O)C3=C(O)C(=O)N(CCN4CCOCC4)C3c3cccc(Cl)c3)oc12 (configuration not stated)
 : 1	0.8	-8	-1.2	-8	0.1%
Cc1nn(-c2ncc(C(F)(F)F)cc2Cl)c(=O)n1-c1ccc(F)cc1
 : -8	-0.1	5	-2.3	19	1.9%
CC1(C)CC(=O)C=C(NCc2ccc(C(=O)O)cc2)C1
 : -6	-0.3	9	-2.7	4	-0.6%
Cc1ccccc1NS(=O)(=O)c1ccc2[nH]c3c(c2c1)CCCCC3
 : nt	1.4	nt	nt	10	1.5%
COc1ccc(OC)c(C(O)c2ncc(-c3ccccc3OC)[nH]2)c1 (configuration not stated)
 : -7	-1.1	-12	5.7	nt	1.3%
CC(C)(C)c1cc(-c2nc(N)nc(N)n2)cc(C(C)(C)C)c1
 : -14	0.4	11	-2.2	-5	3.2%
Cc1cnccc1CN(C)Cc1nc(Cc2ccccc2Cl)no1
 : -5	-0.1	1	1.1	-14	-1.1%
CCOc1ccc(N2CC(c3nc4ccccc4n3Cc3ccccc3F)CC2=O)cc1 (configuration not stated)
 : nt	3.4	nt	nt	-15	-1.3%
CN(Cc1cnn(-c2ccc(F)cc2)c1)Cc1nc(Cc2ccccc2)no1
 : -19	0.8	1	-2.6	-19	0.9%
COc1ccccc1-n1ccnc(SCC(=O)NC2CCCC2)c1=O
 : 4	0.3	5	-1.9	22	3.9%
CCCCN(c1ccccc1)c1ncnc2c1cnn2-c1ccc(Cl)cc1
 : nt	0.2	nt	nt	15	0.5%
O=C(COc1cc(Cl)ccc1Cl)N1CCNC1=O
 : -2	-0.6	0	3.1	-10	3.2%
COc1cc(S(=O)(=O)NCc2cccnc2)ccc1F
 : -15	-0.2	2	-3.5	22	2.0%
Cc1ccc(-n2ncc(C(=O)NCCN3CCN(C)CC3)c2C2CCN(C(=O)OC(C)(C)C)CC2)c(C)c1
 : nt	3.9	nt	nt	1	-1.9%
Cc1ccc(CNC(=O)c2nnc(Cc3ccc(Cl)cc3)o2)cc1
 : 3	0.2	4	-1.7	9	4.8%&4.8%
COc1ccc(C(=O)Oc2c(OC)cc(C(=S)N3CCOCC3)cc2OC)cc1OC
 : -25	1.0	12	-0.5	-1	-1.9%
COC(=O)Cc1c(C)c2ccc3c(c2oc1=O)CN(Cc1ccc(C)cc1)CO3
 : nt	0.7	nt	nt	-19	-0.7%
O=C1O[C@@H](c2ccccc2)C[C@@H](O)C(=O)CCc2ccccc21
 : nt	-0.8	2	nt	nt	-0.2%
Cc1nn(-c2ccccc2)c(C)c1/C=C/C(=O)OCC(=O)Nc1ccc(C(N)=O)cc1
 : -18	0.9	9	-1.7	3	12%
c1ccc(C2Nc3ccccc3C3OCCCC23)cc1 (configuration not stated)
 : -6	0.2	-13	5.9	48	4.1%
Cc1ccc(/C=N/N2CCN(Cc3ccccc3)CC2)o1
 : -21	1.0	0	-3.3	11	0.3%[38.3 µM]
COc1cccc(CN(C(=O)COc2ccccc2[N+](=O)[O-])C2CCS(=O)(=O)C2)c1 (configuration not stated)
 : -4	0.1	4	1.6	5	-0.4%
COCCCN(C(=O)c1cc2c(s1)CCCCC2)c1c(N)n(Cc2ccccc2)c(=O)[nH]c1=O
 : 3	1.0	9	-0.2	4	-3.4%
COc1cc(C(=O)NNC(=O)CCOc2ccccc2C)cc(OC)c1OC
 : -21	0.2	-5	-2.0	21	0.4%
Cc1ccc(Cc2cncc(O)c2)cc1S(=O)(=O)O
 : 27	1.1	-1	1.0	30	-0.4%
CCCOC1CCCN(C(=O)c2cc(COc3cncc(Cl)c3)on2)C1 (configuration not stated)
 : -9	-0.1	2	4.1	1	-1.1%
COC(=O)[C@]1(C)N[C@H](CN(C)C(=O)NC(C)C)[C@@H]2C(=O)N(Cc3ccccc3)C(=O)[C@@H]21
 : nt	-0.1	4	-0.3	-14	2.1%
O=C(O)c1c(NC(=O)N(CCO)Cc2ccccc2)sc2c1CCCC2
 : 0	-0.1	4	1.8	-1	-1.3%
CCOC(=O)C1C(C(=O)OCC)C(C)(C)C1N(C)C (configuration not stated)
 : -2	0.9	3	-2.8	19	2.8%
C(=C\c1ccccc1)/CN1CCN(C(CCc2ccccc2)c2nnnn2-c2ccc3c(c2)OCCO3)CC1 (configuration not stated)
 : -13	-0.7	-28	2.8	nt	1.2%
O=C(O)CCCCCNCc1ccncc1
 : 2	0.5	0	-3.0	-14	3.0%[38.3 µM]
COC(=O)c1c(NC(=S)Nc2ccc(F)cc2[N+](=O)[O-])sc2c1CCCCC2
 : -8	-0.6	3	-5.5	-1	2.0%
CCc1ccc2c(c1)C(NC(C)=O)C(=O)N2CCN1CCOCC1 (configuration not stated)
 : -11	0.4	-5	-5.2	16	-0.8%
Cc1cc(=O)[nH]c(COc2ccccc2)n1
 : -1	-0.3	10	-2.7	14	0.7%
c1ccc2c(NC3C4CC5CC(C4)CC3C5)nc(N3CCOCC3)nc2c1 (configuration not stated)
 : -9	3.6	13	7.1	33	17%
C/C(=N\NC(N)=O)c1ccccc1
 : 0	-0.5	-2	1.8	25	1.1%
COc1ccc(CCNC(=O)C2CCN(c3nn4c(=O)cc(C)nc4s3)CC2)cc1OC
 : 9	-0.3	-1	-8.3	-15	1.3%
Cc1cccc(C(=O)Oc2csc(=S)n2C(=O)c2cccc(C)c2)c1
 : -21	0.3	-2	-3.3	-3	-0.3%
CSc1ccccc1C(=O)C1CCCN(Cc2c(C)n(C)n(-c3ccccc3)c2=O)C1 (configuration not stated)
 : -17	0.6	6	-2.7	-8	1.8%
COC(=O)c1cc2oc3ccccc3c2n1CC(=O)Nc1ccc(C)cc1Cl
 : nt	-0.6	nt	nt	-24	-0.2%
Cc1cc(C)n2nc(SCc3nnc(SCCCCl)o3)nc2n1
 : 4	0.0	0	4.5	4	nt
N#C/C(=N\Nc1ccc(Cl)cc1)C(N)=S
 : -30	-0.3	-10	-13	13	?
CN1CCN(C(=O)CSc2nc(-c3ccco3)cc(C(F)(F)F)n2)CC1
 : -15	-0.5	-2	0.6	-3	1.7%
COc1ccc(S(=O)(=O)NCCC(=O)NCc2ccccc2)cc1
 : -2	-0.3	0	-1.2	4	1.1%[38.3 µM]
CCC(C)Sc1cc(-c2nc3ccccn3c2NC2CCCCC2)ccc1OC (configuration not stated)
 : 2	0.6&1.2	-14&-15	6.2	23	1.4%&16%
CCCS(=O)(=O)N1CCC(n2c(C)nc3cccnc32)CC1
 : nt	-0.5	nt	nt	9	2.4%
COc1ccc(NC(=O)CCCc2nnc3n(C(C)C)c(=O)c4sccc4n23)cc1Cl
 : nt	0.8	nt	nt	2	6.9%
CCc1ccc(S(=O)(=O)ON2C(=O)c3ccccc3C2=O)cc1
 : -28	0.2	7	-7.1	4	0.3%
COc1cc(C)cc(OC)c1OCC(=O)Nc1cc(C)on1
 : -12	-0.8	2	0.1	8	1.3%
CCOc1ccc(C(=O)Nc2ccc(N3CCN(C)CC3)cc2)cc1
 : -11	0.3	3	-7.2	-17	0.0%
CC(=O)c1sc(Nc2ccc(C)cc2)nc1C
 : -32	0.1	0	0.0	4	-1.1%
COc1cc(/C=C2/SC(=S)N(CC(=O)Nc3nc4ccccc4s3)C2=O)cc(OC)c1OC
 : -11	1.5	-13	-2.1	88	-2.7%[38.3 µM]
CCNC(=O)c1ccccc1NC(=O)C1CC(=O)N(C(C)C)C1 (configuration not stated)
 : 3	1.4	2	-2.4	4	2.5%
O=C(CN1C(=O)NC(Cc2c[nH]c3ccccc23)C1=O)NCCc1ccc(F)cc1 (configuration not stated)
 : -3	-0.5	1	3.4	0	1.5%
Cc1ccc(NC(=O)CN(C)C(=O)COC(=O)COc2ccc(C#N)cc2)cc1
 : -9	-0.1	-2	-5.3	5	-0.7%
CCC(=O)Nc1ccc2nc(SCc3ccc(C)cc3)sc2c1
 : nt	-0.6	nt	nt	25	2.4%

# Next records follow.
# Each structure is followed by: D2 potentiator	TRPML1 agonist	Six1-Eya2 inh	D2 ag	TRPML1 blocker	PINK1 expr mod
O=C(NCC(c1ccco1)N1CCCC1)c1cccc(S(=O)(=O)N2CCCCC2)c1 (configuration not stated)
 : -28	-0.5	-3	-1.2	-11	1.0%
O=C(NCCN1CCN(c2ccccc2)CC1)Nc1ccccc1Br
 : -8	-0.3&0.2	-1	0.5	13&-9	0.4%&-0.9%
Cc1ccc(NCc2ccccc2)cc1
 : -3	-1.3	-11	-5.3	-10	5.3%
COC(=O)CNC(c1ccccc1)c1cc(Br)ccc1NC(=O)c1ccc(Cl)cc1 (configuration not stated)
 : nt	0.7	nt	nt	0	4.6%
O=C1CS/C(=C/C(=O)c2cccc(Cl)c2)N1
 : -5	0.6	9	1.2	-1	0.0%
CC(=O)c1cccc(NC(=O)C(C)OC(=O)C2CCC2)c1 (configuration not stated)
 : -8	0.6	-16	-9.2	10	-0.9%
NC1=NC(=O)C(CC(=O)NCc2ccccc2)S1 (configuration not stated)
 : 0	0.1	2	0.3	-4	1.0%
COc1ccc(S(=O)(=O)Nc2ccc3c(c2)C(=O)N([C@H](C)CO)C[C@H](C)[C@@H](CN(C)C(=O)Nc2c(C)noc2C)OCCCC[C@H](C)O3)cc1
 : nt	nt	-1	1.3	nt	0.6%
Cc1ccc(S(=O)(=O)N(C)CC(=O)OCC(=O)N2CCCC2=O)cc1
 : -10	-1.1	0	-2.9	-6	0.9%

# In the list so far, these have a furan ring, fused or not:
# Each structure is followed by: D2 potentiator	TRPML1 agonist	Six1-Eya2 inh	D2 ag	TRPML1 blocker	PINK1 expr mod
COc1cccc2cc(C(=O)C3=C(O)C(=O)N(CCN4CCOCC4)C3c3cccc(Cl)c3)oc12 (configuration not stated)
 : 1	0.8	-8	-1.2	-8	0.1%
Cc1ccc(/C=N/N2CCN(Cc3ccccc3)CC2)o1
 : -21	1.0	0	-3.3	11	0.3%[38.3 µM]
COC(=O)c1cc2oc3ccccc3c2n1CC(=O)Nc1ccc(C)cc1Cl
 : nt	-0.6	nt	nt	-24	-0.2%
CN1CCN(C(=O)CSc2nc(-c3ccco3)cc(C(F)(F)F)n2)CC1
 : -15	-0.5	-2	0.6	-3	1.7%
O=C(NCC(c1ccco1)N1CCCC1)c1cccc(S(=O)(=O)N2CCCCC2)c1 (configuration not stated)
 : -28	-0.5	-3	-1.2	-11	1.0%
